# RecA intein inh – inhibitors of M. tuberculosis RecA intein splicing | 0.75% of 290,000 active | cell-free RecA intein splicing, fluorescence | P9WHJ3 | inhibition, %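 (about 9 µM by stock and volumes)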; in the data active = inhibition above about 30%; inconclusive = no clear call, values can overlap the other calls;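 note: 0% = vehicle wells and 100% = reference inhibitor control wells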
# Target sequence (P9WHJ3 whole entry, looked up): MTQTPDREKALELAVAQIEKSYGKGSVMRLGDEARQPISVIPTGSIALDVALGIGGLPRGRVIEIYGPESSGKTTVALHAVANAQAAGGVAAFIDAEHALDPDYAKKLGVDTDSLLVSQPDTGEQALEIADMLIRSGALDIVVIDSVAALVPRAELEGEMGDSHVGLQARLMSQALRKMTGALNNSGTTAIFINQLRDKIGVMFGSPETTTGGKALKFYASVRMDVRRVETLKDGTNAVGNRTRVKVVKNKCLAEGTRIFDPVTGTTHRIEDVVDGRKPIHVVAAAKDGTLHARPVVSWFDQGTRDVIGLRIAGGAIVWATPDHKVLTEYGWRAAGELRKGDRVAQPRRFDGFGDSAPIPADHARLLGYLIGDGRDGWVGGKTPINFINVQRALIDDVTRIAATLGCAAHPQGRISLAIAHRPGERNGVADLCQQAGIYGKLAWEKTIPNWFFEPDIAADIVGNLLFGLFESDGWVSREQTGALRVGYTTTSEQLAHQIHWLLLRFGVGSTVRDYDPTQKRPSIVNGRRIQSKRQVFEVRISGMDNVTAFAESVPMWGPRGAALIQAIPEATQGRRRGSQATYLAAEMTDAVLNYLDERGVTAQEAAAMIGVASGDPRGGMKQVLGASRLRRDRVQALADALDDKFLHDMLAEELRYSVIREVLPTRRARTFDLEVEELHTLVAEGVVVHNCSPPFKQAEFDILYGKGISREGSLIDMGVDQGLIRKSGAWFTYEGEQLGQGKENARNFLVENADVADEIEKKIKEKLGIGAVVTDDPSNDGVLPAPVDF
# Mtb H37Rv – M. tuberculosis H37Rv growth inhibitors, H37Rv strain (AID 1626); M. tuberculosis H37Rv growth inhibition; higher % means a stronger effect; 0.95% of 220,000 active; inhibition, % at 10 µM, or IC50 in µM where a hit was titrated;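 active = confirmed in a dose series; inconclusive = inhibition above 80% but not taken into the dose series; inactive = below 80% or under 30% at every dose of the series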;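 note: bacteria incubated seven days before Alamar blue readout; 0% = bacteria only wells and 100% = bacteria with antibiotic wells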
# Arbovirus inh – arbovirus infection inhibition | 0.37% of 200,000 active | arbovirus infection cell-based antiviral screen | inhibition, % at 10 µM | AID 1251;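 active = inhibition from about 30%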;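 note: bluetongue infection of BSR cells; cell survival read as ATP light after 72 h; 0% = infected wells without compound and 100% = uninfected wells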
# Mtb betalactam – beta-lactam sensitization of Mtb H37Rv | M. tuberculosis H37Rv growth with meropenem, percent inhibition; hits of this screen are not shown here | inhibition, % at 25 µM | 0.27% of 330,000 active | AID 434955;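 active = about 74% or more and at least 40 points above the plate without the antibiotic, then above 30% in a dose series; inconclusive = first-round hits that could not be retested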;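 note: growth measured after seven days incubation then overnight dye step; 0% = bacteria only wells and 100% = bacteria with antibiotic; twin plates without the antibiotic show which effects depend on it; some results filed as inactive read as strong as hits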
# YopH inh – inhibitors of Yersinia enterocolitica YopH tyrosine phosphatase | inhibition, %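 (about 10 µM by stock and volumes)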 | 0.16% of 140,000 active | AID 898 | fluorescence Ex485/Em525;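 active = inhibition of 50% or more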;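 note: controls were vehicle for no effect and minimum signal wells for full effect; inactives centre near -20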
# Arbovirus inh repeat – also measured in Arbovirus inh; calls as there; inhibition, %; measured here: 10K subset replicate screen; many hits read low in the repeat;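 first of two repeat runs on a subset; 0% = infected and 100% = uninfected wells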
# Numbers without * were called inactive; ? = inconclusive; · = no result given. A portion of the library; the hit share may differ from the screen's.
SMILES,RecA intein inh,Mtb H37Rv,Arbovirus inh,Mtb betalactam,YopH inh,others
Cc1ccc(S(=O)(=O)N2CCN(C(=O)CSC3CCCC3)CC2)c(C)c1,3.8,0.0%,1.6,7.1,-0.9,
CN(CCOc1ccccc1)CC(=O)Nc1ccc(Cl)cc1[N+](=O)[O-],10.8,6.2%,15.0,-1.0,·,
CCC(Cc1ccccc1)NC(=O)c1cc(S(=O)(=O)N2CCCCC2)c[nH]1 (centres undefined),0.1,·,·,4.8,·,
C#Cc1cccc(C(=O)N2CCCC(C(=O)c3ccc(OC)cc3C)C2)c1 (centres undefined),4.5,·,·,-11.1,·,
CCC(NC(=O)C1CCCO1)c1ccccc1 (centres undefined),-0.3,·,·,0.7,·,
COc1ccc(-n2c(O)c(C=NCc3ccccn3)c3ccccc3c2=O)c(OC)c1,9.1,-4.9%,·,-0.3,·,
C=CCn1c(SCc2ccccc2)nc2scc(-c3ccc(C)o3)c2c1=O,-0.6,-2.2%,-3.4,59.9,-2.9,
Cc1ccsc1/C=N/n1c(-c2ccncc2)n[nH]c1=S,1.6,-1.2%,4.1,-4.3,-2.5,
CN1[C@@H]2CC[C@H]1CC(OC(=O)C(CO)c1ccccc1)C2 (some centres undefined),0.2,-8.9%,-7.8,·,-28.2,
O=C(COc1ccccc1)Nc1ccccc1Oc1ccccc1,10.8,2.5%,-12.9,89.0,-15.8,
Cc1onc(-c2ccccc2)c1-c1n[nH]c(=S)n1-c1ccc(C(=O)O)cc1,-0.5,-10.8%,5.1,-0.6,-26.4,
Cc1cccnc1NC(=O)C1CCCN(S(=O)(=O)c2ccc3c(c2)oc(=O)n3C)C1 (centres undefined),-1.4,-0.6%,7.6,-9.0,-41.0,
Cc1onc(-c2ccccc2)c1C(=O)N[C@@H]1C(=O)N2[C@@H]1SC(C)(C)[C@@H]2C(=O)O,·,·,7.0,·,-16.3,
COc1ccc(CCC(=O)NCCS(=O)(=O)N2CCN(c3ccccc3F)CC2)cc1,0.7,·,·,-14.7,·,
Cc1c(Br)c([N+](=O)[O-])nn1CC(=O)N1CCN(C23CC4CC(CC(C4)C2)C3)CC1,0.0,·,·,-5.9,·,
O=C(O)c1cn2c3c(ccc(Cl)c3c1=O)OCC2,-1.5,·,·,1.2,·,
CCCCCCCCCC(=O)NNC(=O)c1c(O)c2ccccc2n(CCC)c1=O,1.8,3.2%,-13.4,2.5,·,
CC(C)CCNC1=NCCCCC1,-1.7,3.1%,-0.2,4.5,-15.4,
CCCCOc1ccc(C(=O)N/C(=C/C=C/c2ccccc2)C(=O)N2CCOCC2)cc1,7.5,13.9µM*,-10.8,98.9,-27.1,
CC1CCN(S(=O)(=O)c2ccc3ncn(CC(=O)N(C)C4CCCCC4)c(=O)c3c2)CC1,2.3,-4.3%,14.3,-1.7,·,
Cc1ccc(-n2c(SCn3nnc4ccccc4c3=O)nnc2-c2cccnc2)c(C)c1,3.8,-1.8%,1.6,7.1,-31.8,
CC1(C)Cc2c(C#N)c(NC3CCCCC3)nc(-c3ccco3)c2CO1,-13.1,-3.0%,11.5,3.5,-16.0,Arbovirus inh repeat=-25.5
O=C(Cc1cccs1)NCCS(=O)(=O)N1CCN(c2ccccc2F)CC1,-0.5,·,·,-0.8,·,
COc1ccc(-c2ccc(SCC(=O)Nc3nccs3)nn2)cc1OC,1.1,8.3%,-4.9,5.0,·,
Cc1ccc(S(=O)(=O)N(C)C)cc1NC(=S)Nc1ccc2[nH]c(=O)[nH]c2c1,-0.9,2.0%,4.2,-3.9,·,

# (further entries)
SMILES,RecA intein inh,Mtb H37Rv,Arbovirus inh,Mtb betalactam,YopH inh,others
O=C1CSc2ccccc2N1Cc1ccccc1F,3.4,6.4%,-7.8,-3.4,-41.3,
CC1CC1C(=O)N1CCN(S(=O)(=O)c2cccc(F)c2)CC1 (centres undefined),-4.4,·,·,-4.9,·,
CC(C)NC(=O)c1ccc2c(c1)nnn2C,1.7,-2.8%,2.2,6.0,-8.6,Arbovirus inh repeat=2.6
Cc1cc(Nc2ncc(Cl)cc2Cl)n(-c2ccccc2)n1,1.2,7.9%,-4.5,1.4,-15.7,
COc1cc(CNc2ccccc2)c([N+](=O)[O-])cc1OC,0.4,·,·,-0.8,·,
COc1ccc(/C=C(\C#N)c2cc(OC)c(OC)cc2[N+](=O)[O-])cc1,-0.2,·,·,4.9,·,
COc1ccc(N2CCN(C(=O)C3COc4ccccc4O3)CC2)cc1 (centres undefined),-0.5,12.1%,12.4,-11.2,-5.6,
CCC(C)(C(=O)NC1CCCC1)N(C(=O)Cc1cccs1)c1c(C)n(C)n(-c2ccccc2)c1=O (centres undefined),2.0,-8.5%,3.8,-10.9,·,
CCOc1ccc2nc(N3CCC(C(=O)N4CCN(c5ncccn5)CC4)CC3)sc2c1,0.5,12.7%,-2.5,4.5,·,Arbovirus inh repeat=8.6
CC(c1nnnn1C(C)(C)C)N(Cc1cccnc1)Cc1ccccc1Cl (centres undefined),3.3,11.3%,-5.8,2.9,-13.2,
CCOc1ccccc1Nc1ccc2nonc2c1[N+](=O)[O-],3.0,·,·,0.9,·,
COc1ccccc1C(=O)NCC(=O)Nc1cccnc1,-0.4,4.4%,2.1,0.1,·,
COc1ccc(CCN(CC(=O)NC(C)(C)C)C(=O)Cn2nnc(-c3ccc(C)o3)n2)cc1OC,-1.7,-3.2%,4.4,-1.9,·,
COc1ccc(/C=N/NC(=O)c2ccccc2OC)cc1COc1ccccc1[N+](=O)[O-],-2.6,·,·,-1.9,·,
O=C1NCCC/C1=N\Nc1ccc(Br)cc1,0.6,?,·,92.9,·,
CCN(CC)S(=O)(=O)c1ccc(/C=C/C(=O)OCC(=O)Nc2ccc(S(N)(=O)=O)cc2)cc1,-3.3,1.7%,8.3,-11.0,-32.2,
COCc1ccc(CN2CCCC(CO)(Cc3cccc(Cl)c3)C2)o1 (centres undefined),-0.8,-4.9%,-12.4,-12.4,·,
COc1ccc(C(=O)OCC(=O)N2C(C)CCCC2C)cc1[N+](=O)[O-] (centres undefined),-2.8,3.1%,4.0,-5.2,·,
CCOC(=O)C1=C(O)/C(=C/c2cn(CC(=O)N3CCCC3)c3ccccc23)SC1=Nc1ccccc1,-0.4,-2.4%,-6.1,·,-30.4,
COc1cc(/C=C/C(=O)O)cc(S(=O)(=O)Nc2ccc(F)cc2)c1OC,-0.5,1.4%,3.5,-1.1,-36.3,
O=C(c1ccc2c3c(cccc13)CC2)C1CCCN(Cc2cccnc2)C1 (centres undefined),-0.2,-1.5%,-11.9,9.8,·,
CC(C)c1nc(SCC(=O)Nc2ccc3c(c2)OCCO3)n[nH]1,-1.9,51.3%,-1.1,76.9,·,
Cc1ccc(S(=O)(=O)c2ccc(Oc3cccc(C)c3)cc2)cc1,·,-5.7%,5.5,-4.1,-24.2,
COc1cccc(-c2nc(CS(=O)(=O)CC(=O)NCC(C)c3ccccc3)c(C)o2)c1 (centres undefined),0.2,·,·,-0.5,·,
COc1ccc(NC(=O)C2CCCN(S(=O)(=O)c3ccc4c(c3)CCCN4C(C)=O)C2)cc1Cl (centres undefined),-0.9,·,·,-4.2,·,

# Among those listed so far, these contain a nitro group on carbon:
SMILES,RecA intein inh,Mtb H37Rv,Arbovirus inh,Mtb betalactam,YopH inh,others
CN(CCOc1ccccc1)CC(=O)Nc1ccc(Cl)cc1[N+](=O)[O-],10.8,6.2%,15.0,-1.0,·,
Cc1c(Br)c([N+](=O)[O-])nn1CC(=O)N1CCN(C23CC4CC(CC(C4)C2)C3)CC1,0.0,·,·,-5.9,·,
COc1cc(CNc2ccccc2)c([N+](=O)[O-])cc1OC,0.4,·,·,-0.8,·,
COc1ccc(/C=C(\C#N)c2cc(OC)c(OC)cc2[N+](=O)[O-])cc1,-0.2,·,·,4.9,·,
CCOc1ccccc1Nc1ccc2nonc2c1[N+](=O)[O-],3.0,·,·,0.9,·,
COc1ccc(/C=N/NC(=O)c2ccccc2OC)cc1COc1ccccc1[N+](=O)[O-],-2.6,·,·,-1.9,·,
COc1ccc(C(=O)OCC(=O)N2C(C)CCCC2C)cc1[N+](=O)[O-] (centres undefined),-2.8,3.1%,4.0,-5.2,·,

# Back to the main list, starting 4 compounds before the break.
SMILES,RecA intein inh,Mtb H37Rv,Arbovirus inh,Mtb betalactam,YopH inh,others
CC(C)c1nc(SCC(=O)Nc2ccc3c(c2)OCCO3)n[nH]1,-1.9,51.3%,-1.1,76.9,·,
Cc1ccc(S(=O)(=O)c2ccc(Oc3cccc(C)c3)cc2)cc1,·,-5.7%,5.5,-4.1,-24.2,
COc1cccc(-c2nc(CS(=O)(=O)CC(=O)NCC(C)c3ccccc3)c(C)o2)c1 (centres undefined),0.2,·,·,-0.5,·,
COc1ccc(NC(=O)C2CCCN(S(=O)(=O)c3ccc4c(c3)CCCN4C(C)=O)C2)cc1Cl (centres undefined),-0.9,·,·,-4.2,·,
c1cncc(-c2cn(C[C@H]3CC[C@@H]([C@@H]4CC[C@H](Cn5cc(-c6cccnc6)nn5)O4)O3)nn2)c1,-0.8,·,·,6.3,·,
Cc1c(N(C(=O)c2cnccn2)C2(C(=O)NC3CCCC3)CCCCC2)c(=O)n(-c2ccccc2)n1C,0.2,3.7%,1.3,0.3,·,
Nc1ccc(S(=O)(=O)NC2(C(F)(F)F)NC(=O)N(Cc3ccccc3)C2=O)cc1 (centres undefined),0.5,·,·,8.4,·,
CN(Cc1ccccc1)C(=O)CN1C(=O)NC(C)(c2ccc(Cl)cc2)C1=O (centres undefined),-0.9,·,·,-0.8,·,
CCC(=O)NC(=S)Nc1cccc(C(C)=O)c1,-6.0,2.7%,7.1,-6.4,-1.4,
COc1cccc(-c2csc(N3CCN(C(=O)NC45CC6CC(CC(C6)C4)C5)CC3)n2)c1,7.1,1.09µM*,0.5,99.7,-13.4,
COc1ccc(CN(C)C(=O)c2ccc(NS(=O)(=O)c3ccccc3)cc2)c(OC)c1,2.5,·,·,-4.3,·,
CCOC(=O)N/N=C(C)/C=C/c1ccco1,1.8,-7.7%,1.2,0.4,-51.6,
CC(Oc1ccc(Cl)cc1Cl)C(=O)Nc1ccncc1 (centres undefined),3.0,-0.8%,-1.4,-5.1,-47.5,Arbovirus inh repeat=-3.6
COC(=O)c1cn(C(=O)c2cc(Cl)ccc2Cl)c2ccccc12,0.0,·,·,-3.7,·,
CCOC(=O)c1cnn(-c2ccccc2)c1NC(=O)c1ccc(C)cc1,-1.6,9.2%,-8.8,?,-10.0,
CCOc1cccc(/C=N/NC(=O)c2cc(-c3cccn3C)n[nH]2)c1O,4.0,-8.0%,-34.1,4.6,·,
Cc1ccccc1CS(=O)(=O)CC1(O)CCN(C(=O)c2cccc(C(F)(F)F)c2)CC1,0.1,-0.8%,6.0,-2.8,-21.8,
COc1ccccc1NC(=O)CSc1nc(SC)ns1,4.4,·,·,70.5,·,
Cn1c(CNC(=O)c2ccccc2)nnc1SCC(=O)Nc1nccs1,0.1,-0.2%,0.6,-6.2,·,
COc1ccc(C(=O)NCCc2nnc3ccc(SCC(=O)NCCc4ccc(OC)c(OC)c4)nn23)cc1,1.9,·,·,1.6,·,
O=C(O)COc1ccccc1/C=N/NC(=O)CSc1nc2ccccc2s1,-0.8,1.8%,·,2.8,·,
CC1(C(=O)O)CCC(C(=O)Nc2ccc(F)cc2)C1(C)C (centres undefined),0.3,·,·,-8.8,·,
CCOC(=O)c1ccc(Oc2nc(OC)nc(N(C)C)n2)cc1,-1.2,-1.9%,-2.2,2.1,-25.7,
COc1cccc(/C=C/C(=O)OCC(=O)Nc2cc(C(F)(F)F)ccc2Cl)c1,3.6,-11.4%,-2.6,6.9,-18.9,
Brc1ccc(-c2csc3[n+]2CCCCC3)cc1,0.6,-0.2%,-12.2,-5.3,·,
Cc1cnc(C(=O)Nc2cccc3ncccc23)cn1,2.0,6.3%,·,-4.8,-8.0,

# Retrieved one by one from above:
SMILES,RecA intein inh,Mtb H37Rv,Arbovirus inh,Mtb betalactam,YopH inh,others
COc1ccc(CN(C)C(=O)c2ccc(NS(=O)(=O)c3ccccc3)cc2)c(OC)c1,2.5,·,·,-4.3,·,
Cc1c(N(C(=O)c2cnccn2)C2(C(=O)NC3CCCC3)CCCCC2)c(=O)n(-c2ccccc2)n1C,0.2,3.7%,1.3,0.3,·,
CCOC(=O)c1cnn(-c2ccccc2)c1NC(=O)c1ccc(C)cc1,-1.6,9.2%,-8.8,?,-10.0,

# Compound activity as filed in PubChem BioAssay.
